# TRPML1 agonist: activates the human TRPML1 channel; Q9GZU1; TRPML1-expressing cells, Ca2+ dye fluorescence, FDSS; host cell line not named in the record; reference of the full effect not given here; activation, % (no concentration beside the values); actives 0.12% (n = 410,000); AID 624414; in the data active = activation above about 50%; inconclusive = about 30% to 50%; inactive = below about 30%; note: 0% is about no effect; the text of the record puts the active cut at 80%
# Target sequence (Q9GZU1 whole entry, looked up): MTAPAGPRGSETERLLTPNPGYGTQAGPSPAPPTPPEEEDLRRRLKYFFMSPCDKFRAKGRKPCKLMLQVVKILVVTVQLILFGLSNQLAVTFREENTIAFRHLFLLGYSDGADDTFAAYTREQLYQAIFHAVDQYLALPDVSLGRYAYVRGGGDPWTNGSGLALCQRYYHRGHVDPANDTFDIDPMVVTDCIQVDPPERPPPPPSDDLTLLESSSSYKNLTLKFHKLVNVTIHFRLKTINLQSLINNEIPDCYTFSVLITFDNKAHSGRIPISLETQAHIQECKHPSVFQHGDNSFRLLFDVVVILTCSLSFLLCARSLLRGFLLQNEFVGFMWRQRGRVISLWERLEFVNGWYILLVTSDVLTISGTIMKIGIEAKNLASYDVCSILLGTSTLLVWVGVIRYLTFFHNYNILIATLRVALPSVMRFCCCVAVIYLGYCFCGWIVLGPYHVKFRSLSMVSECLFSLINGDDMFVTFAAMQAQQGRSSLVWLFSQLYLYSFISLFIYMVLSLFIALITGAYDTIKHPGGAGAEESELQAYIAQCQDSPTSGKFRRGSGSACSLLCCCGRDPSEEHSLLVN
#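 Calcium fluorescence on an FDSS kinetic reader gave the read-out. Tet-induced TRPML1-DL cells were plated overnight, dye-loaded (Ca8 with quencher, 45-90 min, room temperature, dark), then read 110 s after compound addition, and again 110 s after 4uM final 54-4 (EC80).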
# ClpP mod: qHTS Assay for Activators of ClpP; purified B. subtilis ClpP, FRET peptide cleavage, 20 min; Potency, µM (top dose mostly 57.5 µM), inactives show at the highest dose activity change, negative = active; actives 1.9% (n = 340,000); AID 651965, 2013; active = well fitted falling curve with a large enough effect; inconclusive = small, poorly fitted or top-dose-only effect; inactive = no such curve, though single readings can be large or run the other way; note: potency is the fitted concentration of half-maximal effect; the source files actives as falling curves though it sought activators and does not explain the sign; nearly all actives have a fitted effect of over 65% in size; many hits overshoot -100%
# Target sequence (P80244 whole entry, looked up): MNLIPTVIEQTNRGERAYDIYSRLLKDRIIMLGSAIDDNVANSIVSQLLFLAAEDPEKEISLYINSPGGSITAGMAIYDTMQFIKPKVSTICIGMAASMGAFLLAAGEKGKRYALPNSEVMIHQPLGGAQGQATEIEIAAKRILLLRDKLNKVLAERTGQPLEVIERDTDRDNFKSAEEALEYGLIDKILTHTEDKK
#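 ClpP 10 microg/mL final, pH 8 Tris/KCl buffer with BSA, glycerol, Tween-20; compound pinned in; FRET-FV substrate; RT 20 min; Ex320/Em430; ΔFRET vs ADEP 5.8 microM, DMSO, no enzyme.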
# Starred values were filed as active, the others as inactive; ? = inconclusive; & = joins results of further samples. These rows are one share of the data; the hit share may differ from the screen's.
# Below each compound – TRPML1 agonist | ClpP mod
- NS(=O)(=O)c1ccc(NC(=O)CSc2nnc3c(n2)[nH]c2ccccc23)cc1
  -0.5 | 1.4%
- CC1(C(=O)NCc2cccs2)Cc2c(-c3ccc4c(c3)OCO4)ccnc2O1 (stereo not given)
  1.0 | 4.0%
- CNc1ccc(C=O)cc1I
  -0.4 | -5.8%
- CN(C)c1ccc(/C=C/c2cncc3ccccc23)cc1
  -0.5 | -10.9%
- COc1ccc(-c2cnc3c(NC(C)=O)cc(-c4ccsc4)cn23)cc1OC
  0.2 | ?
- CCOC(=O)[C@]12CCC=C1N(Cc1cccc3ccccc13)C(=O)[C@H](CC(=O)NCCCN1CCCC1=O)C2
  -0.6 | -1.6%
- COc1ccccc1CNc1nc(NCCOc2ccccc2)c2sccc2n1
  -0.5 | ?
- COCCNC(=O)C1(C)CCCN(C(=O)CCc2ccccc2)C1 (stereo not given)
  -0.9 | 1.7%
- C1=Cc2ccccc2/C1=C\c1cccc(/C=C2\C=Cc3ccccc32)c1
  0.1 | -0.4%
- CC(=O)Nc1ccc(S(=O)(=O)NCc2ccc(C(=O)NCCN(C)Cc3ccccc3)cc2)cc1
  -0.7 | -1.4%
- O=C(OCc1ccccc1)N1CCC2CC1c1cc(N3CCN(S(=O)(=O)c4cccc5ccccc45)CC3)ccc12 (stereo not given)
  -0.4 | -0.2%
- CC(C)NC(=O)C1(C)CCCN1C(=O)c1cc(C#N)cs1 (stereo not given)
  -0.5 | 1.8%
- O=C1NC[C@H](CCCCN2C[C@H](Cc3ccc(O)cc3)N(CCc3ccccc3)C(=O)C2=O)N(Cc2ccccc2)C1=O
  0.0 | 1.3%
- N#Cc1cccnc1N1CCN(C(c2ccnc3ccccc23)c2nnnn2-c2ccc3c(c2)OCCO3)CC1 (stereo not given)
  -0.6 | ?
- CN(C)c1ccc(CNC(=O)C2(C)Cc3c(-c4ccc5c(c4)OCO5)ccnc3O2)cc1 (stereo not given)
  -1.2 | 4.4%
- COC(=O)c1ccc(Cn2c(C)c(C(=O)Nc3cccc(Oc4ccccc4)c3)sc2=O)o1
  2.8 | -23.8%
- Cc1cnc(C)c(Nc2nc(C(N)Cc3ccccc3)cs2)n1 (stereo not given)
  -0.2 | -0.8%
- CC(O)(c1cccnc1)c1nc(-c2cc(F)cc(F)c2)cs1 (stereo not given)
  -1.1 | -0.2%
- CCCCNC(=O)C1(C)CCC(=O)N1c1cc(C(C)(C)C)nn1C (stereo not given)
  0.0 | -0.6%
- Cc1cc2oc(=O)cc(CN(Cc3ccccc3)Cc3ccccc3)c2cc1Cl
  -0.2 | -4.9%
- Cc1cccc(NC(=O)Nc2nnc([C@@H]3C[C@H](O)[C@@H](CO)O3)s2)c1
  -0.5 | 0.0%
- Cc1ccc(CN2CC(N3CCCCC3)CS2(=O)=O)cc1 (stereo not given)
  -0.4 | 0.1%
- COCCNc1nc2cc(-c3ccsc3)sc2c(=O)n1C
  -0.5 | 4.5%
- COc1ccccc1NC(=O)Nc1nnc([C@H]2C[C@H](O)[C@@H](CO)O2)s1
  -0.6 | -0.1%
- COc1ccc(-c2cnc3cccnn23)cn1
  -0.5 | 4.5%
- Cc1cccc(COC[C@H](Cc2ccccc2)N2CCN(C(=O)c3ccc(C(F)(F)F)cc3)CCC2=O)c1
  2.4 | 2.6%
- CN(Cc1ccccc1)C(=O)c1ccc(Nc2nc(C(N)Cc3ccccc3)cs2)nc1 (stereo not given)
  0.4 | -10.8%
- CN(C)CCN1CCN(C2CN(Cc3cn(Cc4cccc(C(F)(F)F)c4)nn3)S(=O)(=O)C2)CC1 (stereo not given)
  -0.1 | -1.7%
- O=C(Nc1ccc(F)cc1)Nc1nnc([C@@H]2C[C@H](O)[C@@H](CO)O2)s1
  0.2 | -0.6%
- COCCN1C(=O)CCC1(C)C(=O)Nc1c(C)cccc1C (stereo not given)
  -0.5 | -3.5%
- COc1ccc(Cc2c(-c3ccco3)nc3ccc(Cl)cn23)c(C)c1
  -0.3 | ?
- CSc1ccc(CN2CCC2(C)C(=O)Nc2ccc(C)c(O)c2)cc1 (stereo not given)
  -1.2 | 0.8%
- Cc1cnccc1/C=C/c1ccc(N)cc1
  4.5 | -7.5%
- CC(O)(c1ccc(F)c(F)c1)c1nc(-c2cccc(C(=O)O)c2)cs1 (stereo not given)
  -0.4 | -0.9%
- O=c1ncccn1C1OC(CO)C(O)C1O (stereo not given)
  0.0 | -3.0%
- CC1(C(=O)Nc2ccc3c(c2)OCCO3)CCN1C(=O)C/C=C/c1ccccc1 (stereo not given)
  -0.6 | -1.2%
- O=C(NCc1ccc(F)cc1)c1cc(C2CCCN(C(=O)c3cccs3)C2)on1 (stereo not given)
  -0.3 | -3.8%
- CCc1nc2c(OCC(=O)C(C)(C)C)cccn2c1N(C)C(=O)c1cccs1
  -0.8 | -0.9%
- CCCCc1c(-c2ccccc2Br)ncn1CCc1ccccc1OC
  -0.1 | -0.7%
- Cc1cnc2ccccc2c1/C=C/c1ccc(N)cc1
  -0.5 | 1.1%
- COC(=O)[C@]12CCCCC=C1N(CCC1=CCCCC1)C(=O)[C@H](CC(=O)N1CCSCC1)C2
  -0.8 | 3.9%
- COc1ccc(C(=O)Nc2c(F)c(F)c(F)c(F)c2F)cc1OC
  -0.9 | -3.6%
- COc1cccc(OC)c1-c1nn2c(-c3n[nH]c4c3CCC4)nnc2s1
  -0.7&-0.6 | 4.4%&-13.4%
- OC[C@@H]1CN(Cc2cccs2)C[C@H](n2cnc3c(NCc4ccncc4)ncnc32)O1
  0.1 | -1.6%
- CCCCN(C)C(=O)c1ccc(Nc2nc(C(N)COCc3ccccc3)cs2)nc1 (stereo not given)
  -0.4 | -15.5%
- c1ccc(SC23CCCCN(CCC2)C32OCCO2)cc1 (stereo not given)
  -1.4 | 1.7%
- COc1ccccc1N1CCN(Cc2cc(=O)oc3cc(C)cc(C)c23)CC1
  -0.3 | -2.9%
- CSc1ccc(CNC(=O)C2(C)CCCN2C)cc1 (stereo not given)
  -0.3 | -1.1%
- CC1(C(=O)NS(=O)(=O)c2ccccc2)CCN1C(=O)C1(c2ccccc2)CCCC1 (stereo not given)
  -0.5 | -3.1%
- CCOC(=O)C(=O)N(C)c1c(CC)nc2c(OCc3ccc(Cl)cc3)cccn12
  -1.1 | -10.3%

# (listing goes on)
# Below each compound – TRPML1 agonist | ClpP mod
- CN(C)c1ccc(N=Nc2ccc(/C=C/c3ccnc4ccccc34)cc2)cc1
  124.1* | 0.7%
- COCCOC(=O)N1CCCCC1c1cc(C(=O)Nc2cccc3c2CCCC3)no1 (stereo not given)
  -0.7 | -0.8%
- CN(CCC#N)c1ccc(C=O)cc1
  -0.2 | -10.3%
- CCCNC(=O)C1(C)CCCN(Cc2ccccc2F)C1 (stereo not given)
  -0.5 | -1.2%
- Cc1nc2n(c(=O)c1CCN1CCC(c3noc4cc(F)ccc34)CC1)CCC[C@@H]2O
  -0.6 | -0.5%
- CS(=O)(=O)N1CCCCC1c1cc(C(=O)NCc2ccc(Cl)c(Cl)c2)no1 (stereo not given)
  -0.4 | 0.7%
- COc1ccc2c(c1)CCC(=O)[C@H](O)C[C@H](c1ccccc1)OC2=O
  -0.2 | 1.6%
- O=C(Cn1cc(-c2ccccn2)nn1)NS(=O)(=O)c1cccc(OC(F)F)c1
  -0.7 | 0.9%
- CCOC(=O)[C@]12CCCC=C1N(Cc1ccc3c(c1)OCO3)C(=O)[C@H](CC(=O)NCc1ccc(C)o1)C2
  -0.5 | -0.3%
- CCCc1ccc2c(C(F)(F)F)cc(C(F)(F)F)cc2n1
  -0.1 | 3.3%
- CC(O)(c1ccc(F)c(F)c1)c1nc(-c2ccncc2)cs1 (stereo not given)
  -0.4 | 0.1%
- CC(C)C(=O)N1CCCC1(C)C(=O)N(C)Cc1cccc2ccccc12 (stereo not given)
  -0.8 | 0.7%
- CC(NC(=O)c1cnn2c1NC(=C1CC1)C=C2C(F)F)c1ccncc1 (stereo not given)
  -0.8 | -15.3%
- CCOc1ccc(S(=O)(=O)N2CCN(c3nc(-c4ccccc4)nc4ccccc34)CC2)cc1OCC
  -0.3 | ?
- Cc1cc(C)cc(Cn2c3ccc(NC(=S)NC4CCCCC4)cc3c(=O)n2C)c1
  -0.7 | 4.0%
- CCCCC(=O)N(C)c1c(CC)nc2c(OCCOc3ccccc3)cccn12
  -1.3 | -5.6%
- CC(C)CNC(=O)C1(C)CCN1C(=O)c1ccc(C(C)(C)C)cc1 (stereo not given)
  -0.8 | 1.9%
- CC1(C(=O)Nc2cccc3c2CCCC3)CCN1C(=O)CCC1CCCC1 (stereo not given)
  -0.5 | -6.8%
- COc1ccccc1-c1ccc2c(c1)C(C)(Cc1ccc(F)c(Cl)c1)C(=O)N2 (stereo not given)
  0.2 | -0.7%
- Cc1ccc(S(=O)(=O)N2C[C@H]3C(=O)C[C@@H](c4ccccc4)N(S(=O)(=O)c4ccccc4[N+](=O)[O-])[C@H]3C[C@H]2c2ccccc2)cc1
  0.9 | 0.6%
- Nc1nc(NCc2ccc(Cl)cc2Cl)c2[nH]cnc2n1
  -0.3&-0.8 | -2.8%&1.8%
- COCCCNc1ccn2nc(-c3ccc(OCCN4CCOCC4)cc3)cc2n1
  -0.3 | 4.9%
- Clc1nc(NCc2cccs2)c2[nH]cnc2n1
  -0.6&-0.2 | -0.2%&3.6%
- CS(=O)c1ccc(/C=C2\C=Cc3ccccc32)cc1 (stereo not given)
  -0.7 | 2.4%
- COc1cc(-c2cc3nc(NCCOc4ccccc4)ccn3n2)cc(OC)c1OC
  -0.6 | 4.9%
- Cn1c(NCc2cccnc2)nc2cc(-c3cccc(C(F)(F)F)c3)sc2c1=O
  -0.5 | -12.5%
- Cc1ccccc1CNC(=O)c1csc([C@@H]2O[C@H](CO)[C@@H](O)[C@H]2O)n1
  -0.8 | 0.5%
- CC1(C(=O)NS(=O)(=O)C2CC2)CCCN(C(=O)Cc2ccc3ccccc3c2)C1 (stereo not given)
  -0.2 | 0.6%
- Cc1ccccc1-c1cc2nc(Oc3cccc4ccccc34)n(C)c(=O)c2s1
  -0.4 | -1.0%
- OC[C@@H]1CN(Cc2ccncc2)C[C@H](n2cnc3c(N4CCCC4)ncnc32)O1
  -0.8 | -0.2%
- Cc1ccc2ccccc2c1C(O)c1ncc(-c2ccccc2F)[nH]1 (stereo not given)
  2.0 | -1.5%
- COc1ccccc1-c1cnc(C(O)c2ccc(F)cc2C)[nH]1 (stereo not given)
  -0.9 | -9.8%
- COc1cccc(CNC(=O)[C@@H]2CCCN2C(=O)[C@H]2CCCCN2C(=O)c2cccc(OC)c2)c1
  -1.1 | -1.0%
- O=C(CNC(=O)C1CCCCC1)OCC(=O)c1ccc([N+](=O)[O-])cc1
  -0.6 | -5.4%
- CCCC(=O)N1CCCC(c2cc(C(=O)Nc3ccc4c(c3)OCO4)no2)C1 (stereo not given)
  -0.9 | 0.5%
- CC(C)(C)NC(=O)C1c2ccccc2OCC(=O)N1Cc1ccco1 (stereo not given)
  -0.6 | 0.9%
- Cc1ccc(OC2CCN(C(=O)[C@H]3O[C@@H](n4ccc(N)nc4=O)[C@H](O)[C@@H]3O)CC2)cc1
  -0.3 | -0.2%
- CCCCNC(=O)Cn1nnc(-c2ccccc2)c1COc1ccc(C(C)=O)cc1
  -0.7 | -1.8%
- COCCNC(=O)C1(C)CCN(C(=O)Cc2ccc(OC)c(OC)c2)C1 (stereo not given)
  -0.3 | -0.1%
- C#CCn1c2ccccc2c(=O)n1C(C)C
  -0.3 | 5.5%
- COc1ccc(NC(=O)c2cc(C3CCCCN3C(=O)c3cc(OC)c(C)c(OC)c3)on2)c(C)c1 (stereo not given)
  0.7 | -6.0%
- CC1(C(=O)NS(=O)(=O)c2ccc3c(c2)CCO3)CCN1C(=O)COc1ccc(Cl)cc1 (stereo not given)
  -0.3 | 1.8%
- O=C(NC1CCCC1)C1c2ccccc2OCC(=O)N1C1CC1 (stereo not given)
  -0.3 | -1.7%
- CC(=O)OC[C@@H]1CN(Cc2ccccc2)C[C@H](n2cnc3c(NC4CC4)ncnc32)O1
  -0.3 | -1.4%
- COc1ccc(Cn2cc(CN3CC(N4CCN(CCN(C)C)CC4)CS3(=O)=O)nn2)cc1 (stereo not given)
  -0.4 | -1.7%
- Fc1ccc(CNc2ccn3nc(-c4ccccc4)cc3n2)cc1
  -0.3 | 4.8%
- COc1ccc(CCCNC(=O)C2Cc3c(-c4ccccc4)ccnc3O2)cc1 (stereo not given)
  1.4 | -12.5%
- COc1ccc(C(C)(O)c2nc(/C=C/c3ccccc3)cs2)cc1 (stereo not given)
  -0.3 | -23.4%
- CC1(C(=O)NS(=O)(=O)c2cccc(C#N)c2)CCN1C(=O)CCC1CCCC1 (stereo not given)
  0.1 | 1.0%
- O=C(Nc1ccc(Oc2ccccc2)cc1)c1csc([C@H]2C[C@H](O)[C@@H](CO)O2)n1
  0.0 | -5.1%

# Full records from above.
# Results for `Fc1ccc(CNc2ccn3nc(-c4ccccc4)cc3n2)cc1` = TRPML1 agonist: -0.3; ClpP mod: 4.8%
# Results for `CC1(C(=O)NS(=O)(=O)c2ccc3c(c2)CCO3)CCN1C(=O)COc1ccc(Cl)cc1` (stereo not given) = TRPML1 agonist: -0.3; ClpP mod: 1.8%
# Results for `COc1ccc(C(C)(O)c2nc(/C=C/c3ccccc3)cs2)cc1` (stereo not given) = TRPML1 agonist: -0.3; ClpP mod: -23.4%

# High-throughput results as filed in PubChem BioAssay.
